Vaccinia stage – blocks a specific stage of Vaccinia orthopoxvirus infection | activity change (mCherry), % (no concentration beside the values) | AID 1053133 | 0.01% of 89,000 active | Vaccinia-infected cells, mCherry/Venus stage reporter fluorescence; hits give low values; some inactives read as strong as hits;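 active = mCherry past -33% and 40 or more points under the early reporter, replicates agreeing; inconclusive = past -33% without that gap or agreement; tested in A549 cells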;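 also: scaled between vehicle wells and reference inhibitor wells; 23 nL library stock went into each well; one replicate is shown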
Vaccinia stage Venus – second read-out of Vaccinia stage, no call of its own (marks repeat the call); activity change (Venus), %; measured here: Venus reporter, other viral stage;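 negative = less Venus signal; first of two replicates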
* marks the source's active call; other numbers are inactive results; ? = inconclusive; nt = not tested or not shown; & = joins results of further samples. Some of the compounds tested; rates above refer to the full screens.

The line under a structure holds: Vaccinia stage | Vaccinia stage Venus
C[C@H]1CN([C@@H](C)CO)C(=O)c2cccc(NC(=O)C3CCOCC3)c2O[C@H]1CN(C)Cc1ccc(Oc2ccccc2)cc1
  4 | 6
C[C@@H]1CN([C@H](C)CO)C(=O)Cc2cc(NS(=O)(=O)c3ccccc3)ccc2O[C@H]1CN(C)Cc1ccc(Oc2ccccc2)cc1
  ? | nt
COc1cccc(S(=O)(=O)N2CCCCN3[C@H](CO)[C@@H](c4ccc(C#CC5CC5)cc4)[C@H]3C2)c1
  ? | nt
C[C@H](CO)N1C[C@H](C)[C@H](CN(C)CC2CC2)Oc2ccc(NC(=O)CCN3CCOCC3)cc2C1=O
  -4 | 0
CCCN1[C@H](C(=O)NCC)[C@@H](CO)[C@@H]2Cn3c(ccc(-c4ccc(C(=O)N(C)C)cc4)c3=O)[C@@H]21
  8 | 11
CC(=O)N(C)C[C@@H]1Oc2cc(C#Cc3ccc(F)cc3)ccc2S(=O)(=O)N([C@H](C)CO)C[C@H]1C
  ? | nt
COc1ccc(S(=O)(=O)N(C)C[C@@H]2Oc3c(NC(=O)Nc4ccc(C(F)(F)F)cc4)cccc3C(=O)N([C@H](C)CO)C[C@@H]2C)cc1
  ? | nt
CCC(=O)Nc1ccc2c(c1)C(=O)N(C)[C@H]1CC[C@@H](CC(=O)N3CCc4ccccc4C3)O[C@@H]1CO2
  12 | 2
COc1ccc(C#Cc2cnc3c(c2)C(=O)N([C@@H](C)CO)C[C@@H](C)[C@H](CN(C)C(=O)CC2CC2)O3)cc1
  -19 | -15
COc1ccc(CN(C)C[C@H]2OCCCC[C@H](C)Oc3ccc(NS(=O)(=O)c4ccc(Cl)cc4)cc3C(=O)N([C@@H](C)CO)C[C@@H]2C)cc1
  ? | nt
CC(C)NC(=O)N(C)C[C@@H]1OCCCC[C@@H](C)Oc2ccc(NS(=O)(=O)c3cccs3)cc2C(=O)N([C@H](C)CO)C[C@H]1C
  11 | 8
OC[C@H]1[C@@H](c2ccc(C3=CCCC3)cc2)[C@H]2CN(CCC(F)(F)F)CCCCN21
  ? | nt
CNC(=O)C[C@H]1CC[C@@H]2[C@H](COC[C@@H](O)CN2C(=O)c2ccccn2)O1
  -10 | -8
C[C@@H]1CN([C@H](C)CO)C(=O)c2cc(NC(=O)Cn3cnnn3)ccc2O[C@@H]1CN(C)C(=O)Nc1ccccc1
  -3 | -3
COc1cccc(-c2cnc3c(c2)C(=O)N([C@@H](C)CO)C[C@@H](C)[C@H](CN(C)Cc2ccncc2)O3)c1
  17 | -1
C[C@@H]1CCCCO[C@H](CN(C)C(=O)CCC(F)(F)F)[C@@H](C)CN([C@H](C)CO)C(=O)c2cc(NC(=O)c3ccccc3)ccc2O1
  7 | 5
C[C@@H]1CN([C@H](C)CO)C(=O)c2cccc(NC(=O)c3nc4ccccc4s3)c2O[C@@H]1CN(C)S(=O)(=O)c1cccs1
  2 | 4
OC[C@H]1[C@@H]2c3ccccc3NC[C@@H]2N1CC1CCOCC1
  5 | 5
C[C@@H]1CN([C@@H](C)CO)C(=O)c2cc(NS(=O)(=O)c3ccc(F)cc3)ccc2O[C@H]1CN(C)Cc1ccc(Cl)c(Cl)c1
  ? | nt
C[C@H](CO)N1C[C@H](C)[C@@H](CN(C)CC2CCCCC2)Oc2c(NC(=O)NC3CCCCC3)cccc2C1=O
  -9 | -6
C[C@@H]1CN([C@H](C)CO)C(=O)c2cccc(NC(=O)c3ccc(-c4nccs4)cc3)c2O[C@H]1CN(C)S(=O)(=O)c1ccccc1
  8 | 7
CCCN(C)C[C@@H]1Oc2cc(-c3ccc(OC)cc3)ccc2S(=O)(=O)N([C@H](C)CO)C[C@@H]1C
  -12 | -13
COc1ccc2c3c([nH]c2c1)[C@H](CO)N(C(=O)C1CCCCC1)CC31CCN(S(C)(=O)=O)CC1
  15 | 10
C[C@H]1CN([C@@H](C)CO)C(=O)c2cc(NC(=O)c3ccncc3)ccc2O[C@@H]1CN(C)Cc1ccc(C(=O)Nc2ccccc2N)cc1
  18 | 10
O=C(c1cccc(F)c1)N1CC(=O)N2[C@@H](CO)[C@H](c3ccc(C4=CCCC4)cc3)[C@@H]2C1
  3 | 3
COCc1cn(CC[C@@H]2CC[C@H](NC(=O)Nc3ccc(F)cc3)[C@@H](CO)O2)nn1
  4 | 3
CO[C@H]1CN(C)C(=O)c2cc(NC(C)=O)ccc2OC[C@H](C)N(C(=O)c2ccccc2)C[C@H]1C
  1 | 5
COc1ccccc1-c1ccc([C@H]2[C@@H](CO)N(C(=O)C3CCCCC3)[C@H]2C#N)cc1
  -1 | 1
O=C1CN(Cc2ccc(F)cc2)C[C@H]2[C@H](c3ccc(Br)cc3)[C@@H](CO)N12
  -1 | 5
COc1cccc(-c2ccc([C@H]3[C@H](C#N)N(C(=O)Cc4ccncc4)[C@H]3CO)cc2)c1
  -8 | 1

4 entries from above, with each value named:
OC[C@H]1[C@@H](c2ccc(C3=CCCC3)cc2)[C@H]2CN(CCC(F)(F)F)CCCCN21
  Vaccinia stage: ?; Vaccinia stage Venus: nt
CNC(=O)C[C@H]1CC[C@@H]2[C@H](COC[C@@H](O)CN2C(=O)c2ccccn2)O1
  Vaccinia stage: -10; Vaccinia stage Venus: -8
C[C@@H]1CN([C@H](C)CO)C(=O)c2cc(NC(=O)Cn3cnnn3)ccc2O[C@@H]1CN(C)C(=O)Nc1ccccc1
  Vaccinia stage: -3; Vaccinia stage Venus: -3
COc1cccc(-c2cnc3c(c2)C(=O)N([C@@H](C)CO)C[C@@H](C)[C@H](CN(C)Cc2ccncc2)O3)c1
  Vaccinia stage: 17; Vaccinia stage Venus: -1

The list goes on.
The line under a structure holds: Vaccinia stage | Vaccinia stage Venus
Cc1ccc(S(=O)(=O)N(C)C[C@H]2Oc3c(NS(=O)(=O)c4c(C)noc4C)cccc3C(=O)N([C@@H](C)CO)C[C@H]2C)cc1
  -12 | -12
O=C(Nc1cc(F)ccc1F)N1CCCCN2[C@H](CO)[C@H](c3ccc(-c4ccccc4)cc3)[C@H]2C1
  ? | nt
COc1ccc(S(=O)(=O)N(C)C[C@@H]2Oc3c(NC(=O)CCCCCC(=O)Nc4ccccc4N)cccc3C(=O)N([C@H](C)CO)C[C@@H]2C)cc1
  -9 | -8
O=C(C[C@H]1C=C[C@H](NC(=O)NC2CCCCC2)[C@H](CO)O1)NCc1ccc(Cl)cc1
  6 | 7
CCC(=O)Nc1ccc2c(c1)C(=O)N(C)C[C@@H](OC)[C@H](C)CN(C(=O)COC)[C@@H](C)CO2
  25 | 21
CCC(=O)N1CC2(C1)[C@H](c1ccccc1)[C@@H](CO)N2Cc1ccccc1F
  6 | 9
OC[C@H]1[C@@H](c2ccc(C#CC3CCCC3)cc2)[C@@H]2CN(CCC(F)(F)F)CCCCN12
  ? | nt
Cc1noc(C)c1S(=O)(=O)Nc1cccc2c1O[C@@H](CN(C)Cc1ccc(Oc3ccccc3)cc1)[C@@H](C)CN([C@@H](C)CO)C2=O
  -16 | -13
CN(C)C(=O)c1ccc(-c2ccc([C@H]3[C@@H](CO)N4CCCCN(C(=O)C5CCC5)C[C@@H]34)cc2)cc1
  9 | 8
C[C@@H]1CN([C@H](C)CO)C(=O)c2cc(Br)cnc2O[C@@H]1CN(C)C(=O)c1ccccc1
  1&-1 | 25&14
Cc1ccc(S(=O)(=O)N[C@@H]2CC[C@H](CC(=O)N3CCC(Cc4ccccc4)CC3)O[C@@H]2CO)cc1
  ? | nt
CCCNC(=O)Cc1ccc(N2C(=O)CSC2c2ccccc2)cc1 (stereo not drawn)
  4 | 2
COc1ccccc1-c1cccc(-c2nc(C(=O)N3CCOCC3)cc3c2[C@@H](CCO)N([S@](=O)C(C)(C)C)C3)c1
  -26 | -1
C[C@@H]1CN([C@H](C)CO)C(=O)c2cc(NC(=O)Nc3cccc4ccccc34)ccc2O[C@H]1CN(C)Cc1ccc(Oc2ccccc2)cc1
  -30 | -20
COc1ccc(C#Cc2cnc3c(c2)C(=O)N([C@@H](C)CO)C[C@H](C)[C@H](CN(C)CC2CC2)O3)cc1
  -18 | -19
COc1ccc(NC(=O)N(C)C[C@@H]2Oc3c(NC(=O)c4ccc(-c5nccs5)cc4)cccc3C(=O)N([C@@H](C)CO)C[C@@H]2C)cc1
  11 | 7
Cc1ccc(S(=O)(=O)Nc2ccc3c(c2)C(=O)N([C@@H](C)CO)C[C@@H](C)[C@H](CN(C)C(=O)Nc2ccc4c(c2)OCO4)OCCCC[C@@H](C)O3)cc1
  -3 | -4
C[C@H](CO)N1C[C@H](C)[C@H](CN(C)C(=O)Nc2ccc3c(c2)OCO3)OCCCC[C@H](C)Oc2ccc(NC(=O)CCCCCC(=O)Nc3ccccc3N)cc2C1=O
  17 | 15
COc1ccc2c3c(n(C)c2c1)[C@H](CO)N(C(=O)Cc1ccccn1)CC31CCN(CC2CCCCC2)CC1
  -3 | 2
C[C@@H]1CN([C@H](C)CO)C(=O)c2cc(NC(=O)Cn3cnnn3)ccc2O[C@H]1CN(C)C(=O)Nc1ccc2c(c1)OCO2
  30 | 11
CCCNC(=O)N[C@H]1C=C[C@H](CC(=O)NCCc2ccccc2)O[C@@H]1CO
  -7 | -9
COc1ccccc1NC(=O)N[C@@H]1CC[C@@H](CCNS(=O)(=O)c2ccc(Cl)cc2)O[C@@H]1CO
  -15 | -7
O=C(C[C@@H]1C=C[C@@H](NC(=O)Nc2ccc3c(c2)OCO3)[C@@H](CO)O1)NCc1ccc2c(c1)OCO2
  5 | 4
COc1ccc(NC(=O)N(C)C[C@H]2Oc3ccc(NC(=O)C4CCCCC4)cc3CC(=O)N([C@H](C)CO)C[C@H]2C)cc1
  11 | 13
COc1ccc(NC(=O)N(C)C[C@@H]2OCCCC[C@@H](C)Oc3ccc(NS(=O)(=O)c4ccc(OC)cc4)cc3C(=O)N([C@@H](C)CO)C[C@@H]2C)cc1
  4 | 0
CCN1[C@H](C(=O)NCc2ccc(F)cc2)[C@@H](CO)[C@@H]2Cn3c(ccc(-c4ccccc4OC)c3=O)[C@@H]21
  2 | 2
CN1[C@@H]2c3ccc(-c4ccccc4)c(=O)n3C[C@H]1[C@H](CO)[C@H]2C(=O)NCC1CC1
  16 | 9
O=C([C@@H]1[C@@H](CO)[C@@H]2Cn3c(ccc(C4=CCCC4)c3=O)[C@@H]2N1CC1CC1)N1CCCCC1
  7 | 17
CO[C@@H]1CN(C)C(=O)c2ccc(NC(=O)C3CCC3)cc2OC[C@H](C)N(Cc2ccc(F)cc2)C[C@H]1C
  -31 | -25
CCNC(=O)C[C@@H]1CC[C@@H]2[C@H](COC[C@H](O)CN2Cc2ccc(Cl)c(Cl)c2)O1
  -12 | -11

A second format for part of the listing above.
structure: COc1ccc(S(=O)(=O)N(C)C[C@@H]2Oc3c(NC(=O)CCCCCC(=O)Nc4ccccc4N)cccc3C(=O)N([C@H](C)CO)C[C@@H]2C)cc1
  Vaccinia stage: -9 | Vaccinia stage Venus: -8

structure: COc1ccccc1-c1cccc(-c2nc(C(=O)N3CCOCC3)cc3c2[C@@H](CCO)N([S@](=O)C(C)(C)C)C3)c1
  Vaccinia stage: -26 | Vaccinia stage Venus: -1

(next part)
SMILES,Vaccinia stage,Vaccinia stage Venus
O=[N+]([O-])c1cccc(/C=C/CO)c1,25,23
COc1ccc(CNC(=O)C[C@H]2C=C[C@H](NC(=O)CN(C)C)[C@@H](CO)O2)cc1,7,22
C[C@H]1CN([C@@H](C)CO)C(=O)Cc2cc(NS(=O)(=O)c3ccccc3)ccc2O[C@H]1CN(C)CC1CCCCC1,?,nt
C[C@H]1CN([C@@H](C)CO)C(=O)CCCn2cc(nn2)CO[C@H]1CN(C)S(=O)(=O)c1cccc(C#N)c1,31,22
O=C(NCc1nc2ccccc2[nH]1)C1=C[C@@H](c2ccccc2)C[C@@H](OCCCCO)O1,10,11
C[C@H]1CN([C@@H](C)CO)C(=O)CCCn2cc(nn2)CO[C@H]1CN(C)S(=O)(=O)c1ccc2c(c1)OCCCO2,8,4
C[C@H](CO)N1C[C@H](C)[C@H](CN(C)Cc2ccccc2C(=O)O)Oc2cc(-c3ccc(C(=O)N(C)C)cc3)ccc2S1(=O)=O,18,8
CO[C@H]1CN(C)C(=O)c2ccc(NS(C)(=O)=O)cc2OC[C@@H](C)N(C(=O)C2CC2)C[C@@H]1C,16,10
C[C@@H]1CN([C@H](C)CO)C(=O)c2cc(NC(=O)C3CCCCC3)ccc2O[C@@H](C)CCCCO[C@@H]1CN(C)Cc1ccccc1,?,nt
C[C@H](NC(=O)[C@@H]1[C@@H](CO)[C@@H]2Cn3c(cccc3=O)[C@@H]2N1CC1CC1)c1ccccc1,28,19
CCS(=O)(=O)N1[C@@H](CO)[C@@H](c2ccccc2)C12CN(C(=O)C1CCCCC1)C2,12,3
C[C@@H]1CN([C@@H](C)CO)C(=O)c2cc(NC(=O)Nc3cccc4ccccc34)ccc2O[C@@H]1CN(C)Cc1ccc(Oc2ccccc2)cc1,-15,-7
CN(C)C(=O)C[C@@H]1C[C@@H]2c3cc(NC(=O)Cc4ccncc4)ccc3O[C@@H]2[C@H](CO)O1,14,21
NC(=O)C1=C[C@H](c2ccc(C(F)(F)F)cc2)C[C@H](OCc2ccc(CO)cc2)O1,2,-4
O=C(C[C@H]1CC[C@@H](NC(=O)C2CCOCC2)[C@@H](CO)O1)Nc1ccc(-c2ccccc2)cc1,2,2
C[C@@H](NC(=O)C[C@H]1C[C@@H]2c3cc(NC(=O)Nc4ccccc4F)ccc3O[C@@H]2[C@@H](CO)O1)c1ccccc1,-25,-20
CN(C)C(=O)c1cccc(-c2ccc(C3[C@H]4CNC[C@@H]3N4C(=O)Nc3cccc(Cl)c3)cc2)c1 (stereo partly drawn),9,15
CC(C)c1cn(CC[C@@H]2CC[C@@H](NC(=O)Nc3cc(Cl)cc(Cl)c3)[C@@H](CO)O2)nn1,5,3
CCCNC(=O)N1C[C@@H](C)[C@H](OC)CN(C)C(=O)c2cc(NS(C)(=O)=O)ccc2OC[C@@H]1C,6,2
C[C@H](CO)N1C[C@H](C)[C@@H](CN(C)C(=O)Nc2ccc3c(c2)OCO3)Oc2ccc(NC(=O)CCCCCC(=O)Nc3ccccc3N)cc2C1=O,16,2

Bioassay records (PubChem BioAssay)
